StopGo FLuc: lowers the firefly signal of an FMDV 2A StopGo reporter. Potency, µM (series often up to 57.5 µM), without a hit: at the top dose signal change, negative = less light. HEK cells with a luciferase reporter of 2A StopGo recoding. AID 1745856. 0.23% of 120,000 active; active = well fitted falling curve with a large enough effect; inconclusive = small, poorly fitted or top-dose-only effect; inactive = no such curve, though single readings can be large or run the other way; further: nearly all actives have a fitted effect of over 60% in size; overnight with compound
StopGo RLuc: FMDV 2A StopGo reporter, Renilla signal. HEK cells with a luciferase reporter of 2A StopGo recoding. Potency, µM (doses to about 57.5 µM), inactives show at the highest dose signal change, negative = less light. 0.32% of 120,000 active. AID 1745857; active means well fitted falling curve with a large enough effect; inconclusive means small, poorly fitted or top-dose-only effect; inactive means no such curve, though single readings can be large or run the other way; further: nearly all actives have a fitted effect of over 55% in size; overnight with compound
* = called active by the depositor; u = inconclusive; & = joins results of further samples; [ ] = remark or other dose. On the % scale 0 is the no-effect control and ±100 the full control effect; potency means the concentration at half of the fitted maximal effect.

SMILES	StopGo FLuc	StopGo RLuc
CCc1cc2c(cc3c(=O)n(CC(=O)NC4CCCCC4)nc(CC)n32)s1	12%	12%
Cn1c(=O)c(=O)n(C)c2cc(S(=O)(=O)Nc3ccc(Cl)c(C(F)(F)F)c3)ccc21	-16%	-1%
CC(C)OCCCNC(=O)C(=O)Nc1ccc2nc3n(c(=O)c2c1)CCCCC3	16%	2%
Cc1c(C)n(Cc2ccncc2)c2ncnc(NCc3ccncc3)c12	u	u
CCc1cc2c(cc3c(=O)n(CC(=O)NC4CCC(C)CC4)nc(CC)n32)s1 (stereo not drawn)	113%[activator]	-3%
Cc1ccc(CNS(=O)(=O)c2ccc3c(c2)NC(=O)C(C)CS3)cc1 (stereo not drawn)	u	14%
FC(F)(F)c1cccc(-c2noc(CSc3nc4ccccc4o3)n2)c1	6%	-11%
O/N=C/c1ccccc1OC(F)F	-2%	7%
CSc1ccc(/C=C/C(=O)c2cccc(Br)c2)cc1	24%	7%
O=C(NC1CCCCCCCCCCC1)c1ccncc1	-9%	-12%
CC(=O)Nc1ccc(C(=O)COc2ncnc3sc4c(c23)CCC4)cc1	-6%	-15%
CN(Cc1ccccc1)c1ncnc2c1nnn2C	-16%	28%
COc1ccc2nc(C)cc(SCC(NC(C)=O)C(=O)OC(C)C)c2c1 (stereo not drawn)	-9%	-20%
CCCN1CCN(C(=O)Cn2c(-c3cccs3)cc3ccccc32)CC1	-4%	-7%
COc1ccc(S(=O)(=O)N2CCC(c3ccncc3)CC2)cc1OC	-14%	65%[activator]
Cc1ccc(CNC(=O)CCNS(=O)(=O)c2ccc3c(c2)CCCC(=O)N3)cc1	18%	18%
CC1(C)O[C@@H]2C[C@H]3[C@@H]4C[C@H](F)C5=CC(=O)CC[C@]5(C)[C@H]4[C@@H](O)C[C@]3(C)[C@]2(C(=O)CO)O1	10%	9%
CC(C)C(=O)N1N=C(c2ccc(Cl)cc2)CC1c1ccc2nccnc2c1 (stereo not drawn)	23%	-16%
Cc1ccccc1OCC(=O)Nc1ccc2c(c1)nc(Cn1cccn1)n2CC(C)C	18%	-1%
CCCN1C(=O)c2[nH]nc(-c3c(C)cc(C)cc3O)c2C1c1ccc(OC)cc1 (stereo not drawn)	-15%	-8%

Ordered by formula weight (ascending): five of the compounds above.
SMILES	StopGo FLuc	StopGo RLuc
O=C(NC1CCCCCCCCCCC1)c1ccncc1	-9%	-12%
CSc1ccc(/C=C/C(=O)c2cccc(Br)c2)cc1	24%	7%
CC(=O)Nc1ccc(C(=O)COc2ncnc3sc4c(c23)CCC4)cc1	-6%	-15%
CCCN1C(=O)c2[nH]nc(-c3c(C)cc(C)cc3O)c2C1c1ccc(OC)cc1 (stereo not drawn)	-15%	-8%
Cc1ccc(CNC(=O)CCNS(=O)(=O)c2ccc3c(c2)CCCC(=O)N3)cc1	18%	18%

Other compounds.
SMILES	StopGo FLuc	StopGo RLuc
O=C(Nc1ccc(F)c(F)c1F)c1ccc(-c2ccccc2)cc1	109%[activator]	6%
Cc1ccc(CNC(=O)CCc2ncc(-c3ccc(Cl)cc3Cl)o2)cc1	21%	-3%
CCCN(CCC)C(=O)CSc1nc2ccccc2c(=O)n1Cc1ccco1	22%	10%
C=CCNC(=O)NC(=O)CN(C)CCOc1ccc(Cl)cc1	37%[activator]	4%
COc1ccc(CNC(=O)COC(=O)CC2CCCC2)cc1	-2%	-5%
CC(NC(=O)CCc1ccco1)C1CC2CCC1C2 (stereo not drawn)	9%	10%
CC(=O)N(c1nc(C)c(C(=O)Nc2ccc3cc[nH]c3c2)s1)C1CC1	97%[activator]	8%
N#C/C(=C/c1cccc(NC(=O)c2ccc(Cl)cc2)c1)c1ccccn1	0%	12%
NCCOc1ccccc1	8%	3%
COc1cc(OC)c(NC(=O)C2=C(C)C(=O)OC23CCCCCC3)cc1Cl	-10%	10%
COc1ccc(CCNS(=O)(=O)c2ccc3c(c2)c(=O)n(C)c(=O)n3C)cc1OC	-7%	6%
O=C(Nc1cccc(OCc2cc(=O)n3ccccc3n2)c1)c1ccccc1Br	3%	3%
COc1ccc(OC)c(CNC(=O)c2cc(Br)ccc2O)c1	14%	36%[activator]
CCn1c(NC(=O)CCc2nc(-c3ccsc3)no2)nc2ccccc21	0%	-6%
CSc1ccc(CCNC(=O)Cn2ncn3c(cc4ccccc43)c2=O)cc1	1%	-7%
CCN(CC)CC(=O)Nc1c(C)cccc1C	-8%	-9%
Cc1ccc(NC(=O)C2=C(c3ccccc3)NC(=S)NC2c2ccc(C(C)C)cc2)cc1 (stereo not drawn)	14%	6%
CCc1ccc(N2CCn3c2nc2c3c(=O)n(CCCc3ccccc3)c(=O)n2C)cc1	-2%	-6%
CC(C)COc1ccc(C(=O)N2CCC(c3nc4ccccc4s3)CC2)cc1	-10%	4%
Cc1ccc(C(=O)Nc2cc3cc(Cl)ccc3oc2=O)cc1	131%[activator]	0%
CCCCNC(=O)c1cccc(NC(=O)Nc2ccccc2)c1	26%	55%[activator]
O=C(O)c1cc(C(=O)O)c(C(=O)O)nc1C(=O)O	9%	5%
CCC(CC)C(=O)Nc1ccc(S(=O)(=O)N2CCC(c3nc4ccccc4s3)CC2)cc1	-29%	-16%
COc1ccc(CNc2nc3c(c(=O)[nH]c(=O)n3C)n2Cc2ccccc2)cc1	10%	4%
COc1ccc(CNc2nc(SCc3ccccc3Cl)nc3ccccc23)cc1	-18%	-6%
Fc1ccc(Nc2ncnc3onc(-c4cccc(Cl)c4)c23)c(F)c1	-22%	-17%
FC(F)Oc1ccc(C2CC(c3ccc(Br)cc3)n3nnnc3N2)cc1 (stereo not drawn)	14%	154%[activator]
CCOC(=O)c1c(NC(=O)c2cc(-c3ccc(Cl)cc3)on2)sc(C)c1C	-14%	3%
Cc1cc(C)cc(COc2ccc(C(N)=O)cc2)c1	0%	-1%
CCN(CC)C(=O)C1=C(C)Nc2nc3ccccc3n2C1c1cccc(OC)c1 (stereo not drawn)	-6%	-8%
S=C(NCc1ccc(Cl)cc1)Nc1ccc(Nc2ccccc2)cc1	u	u
COc1cc2c(cc1NS(=O)(=O)c1cccc(C#N)c1)n(C)c(=O)n2C	0%	6%
CC(=O)N1CCc2cc(S(=O)(=O)NC(Cc3ccccc3)C(=O)Nc3cc(C)ccc3C)ccc21 (stereo not drawn)	-15%	-7%
CCOc1ccc(NC(=O)c2cc3nc(-c4ccc(OC)cc4)cc(C(F)(F)F)n3n2)cc1	-13%	-5%
CC1CCN(CC2CCN(C(=O)NCc3ccccc3)CC2)CC1	-8%	-7%
Cc1ccc(S(=O)(=O)Cc2nc(-c3ccc(C(=O)NCCN4CCCCCC4)cc3)oc2C)cc1	-22%	-3%
CS(=O)(=O)NC(=O)c1ccc(F)c(F)c1	9%	2%
O=C(O)c1nnn(-c2cccc(F)c2)c1C(F)(F)F	2%	2%
CCN(CC)S(=O)(=O)c1ccc2c(c1)N(CC(=O)N1CCN(c3cccc(OC)c3)CC1)C(=O)CO2	-4%	2%
Cc1[nH]c2ccccc2c1C(=O)C(=O)Nc1ccc(C(C)C)cc1	36%[activator]	42%[activator]
Cc1c(C(=O)N(Cc2ccc(N(C)C)cc2)CC2CCCO2)oc2ccc(Br)cc12 (stereo not drawn)	-6%	0%
CC(=O)Nc1ccc(NC(=O)CSc2nc3ccccc3nc2N2CCCCC2)cc1	22%&-13%	7%&-2%
CCCS(=O)(=O)c1nc(S(=O)(=O)c2ccc(C)cc2)c(NC)s1	-11%&-19%	47%&-10%[activator]
COC(=O)c1c(-c2cccs2)csc1NC(=O)COc1c(C)ccc(C)c1C	-18%	28%
O=C(OCC1CCCO1)c1cccc(O)c1 (stereo not drawn)	63%[activator]	12%
Oc1c(Cl)cc(Cl)cc1Sc1cc(Cl)cc(Cl)c1O	11%[11.5 µM]	u
CC(C)N(CCCNC(=O)Cn1ncc2c([nH]c3ccccc32)c1=O)Cc1ccccc1	-23%	-10%
CC(C)c1ccc(/C=N/NC(=O)Cc2cccc3ccccc23)cc1	0%	8%
Cc1ccccc1-c1nn2c(COc3ccccc3)nnc2s1	21%	33%[activator]
O=C(COC(=O)c1ccc2ccccc2n1)NC(=O)c1ccccc1	4%	-12%
Cc1ccc(-c2csc(Nc3ccc(O)cc3)n2)cc1C	41%[activator]	-26%
COC(=O)c1cc(/C=C/C(=O)O)oc1C	8%	10%
CCn1c(SCC(=O)Nc2ccc3c(c2)OCCO3)nc2c(-c3ccccc3)csc2c1=O	41%[activator]	-5%
COc1ccc(OCCCCn2c(C3CC(=O)N(c4cccc(Cl)c4)C3)nc3ccccc32)cc1 (stereo not drawn)	0%	-28%
CSc1ccccc1NC(=O)c1ccccc1SC	0%	-2%
Cc1cccc(Oc2ccc(Cl)cc2NC(=O)c2nn(C)c(=O)c3ccccc23)c1	4%	5%
COc1ccc(C(=O)CSc2nnc3c(=O)n(-c4cc(Cl)ccc4C)ccn23)cc1OC	-2%	-10%
N#Cc1nc(COc2ccccc2Cl)oc1NCCc1ccccc1	0%	5%
Cc1[nH]c2ccccc2c1C(=O)C(C)Sc1ccc2c(c1)OCCCO2 (stereo not drawn)	u	u
CNC(=O)C1CCN(Cc2nnnn2-c2ccccc2)CC1	12%	-2%

As a working copy, part of the list above:
SMILES	StopGo FLuc	StopGo RLuc
CCc1cc2c(cc3c(=O)n(CC(=O)NC4CCCCC4)nc(CC)n32)s1	12%	12%
Cn1c(=O)c(=O)n(C)c2cc(S(=O)(=O)Nc3ccc(Cl)c(C(F)(F)F)c3)ccc21	-16%	-1%

(listing goes on)
SMILES	StopGo FLuc	StopGo RLuc
O=C(/C=C/c1ccccc1[N+](=O)[O-])OCC(=O)c1ccccc1F	0%	-2%
CC(C)c1ccc(-n2nnnc2SCc2nc3ccccc3o2)cc1	21%	2%
Cc1nc2cc(F)ccc2cc1C(=O)N(Cc1cccnc1)C(C)C	-1%	-10%
CC(Sc1nc(-c2ccccc2)c(C#N)c(=O)[nH]1)C(=O)Nc1ccc(F)cc1 (stereo not drawn)	-15%	-6%
COc1ccc(CCNC(=O)c2ccc3c(c2)sc2nc(-c4ccc(C)cc4)cn23)cc1OC	35%[activator]	60%[activator]
COC(=O)c1cc(Oc2nc3ccccc3o2)cc(C(=O)OC)c1	30%[activator]	0%
CCc1c(C(=O)NC2CCN(C)CC2)csc1C	12%	-1%
O=c1oc2cc(OCc3nn[nH]n3)ccc2cc1-c1ccc2ccccc2c1	39%[activator]	-13%
O=C1CC(C(=O)Nc2ccc3c(c2)OCCO3)N=C(Nc2ccc(F)cc2)N1 (stereo not drawn)	-2%	-4%
O=C(Nc1ccc(-n2cccn2)c(F)c1)C1CCN(C(=O)c2cccs2)CC1	1%	-14%
Cc1c(C(=O)O)sc2ccsc12	19%	4%
CCOC(=O)C1=C(CN2CCN(c3ccccn3)CC2)NC(=O)NC1c1ccc(OCC)cc1 (stereo not drawn)	8%	0%
COc1ccc(-c2nc(C)c(CCNC(=O)c3cc(OC)c(OC)c(OC)c3)s2)cc1OC	88%[activator]	27%
O=C1CC(c2nc3ccccc3n2CCCCOc2ccccc2)CN1c1ccccc1Cl (stereo not drawn)	u	-11%
Cc1nn(-c2ccccc2)c(-n2cccc2)c1C(=O)NCCc1ccc(Cl)cc1	u	u
Cc1nc2cc(NS(=O)(=O)c3c(C)c(C)c(C)c(C)c3C)ccc2o1	u	164%[activator]
CCCCNC(=O)Cc1c[nH]c2ccccc12	u	-1%[1.06 µM]
O=C(O)C1CC=CCC1C(=O)Nc1ccccc1C(F)(F)F (stereo not drawn)	0%	19%
O=C(NC1CCCCC1)c1ccc2c(c1)N(Cc1ccc(Cl)cc1)C(=O)c1ccccc1S2(=O)=O	-8%	0%
COc1ccc(S(=O)(=O)N(CC(=O)Nc2cccnc2)c2ccc(Cl)cc2)cc1	31%[activator]	5%
COc1cc(C#N)ccc1OC(C)C(=O)Nc1ccc(C)cc1C (stereo not drawn)	11%	-3%
Cc1ccnc(NC(=O)CCc2nc(C(C)(C)C)no2)c1	-14%	5%
CC(=O)N[C@H](C(=O)O)C(C)C	-2%	5%
CCCN(CC(F)(F)F)C(=O)c1[nH]c(C)c(C(=O)OC)c1C	11%	99%[activator]
COc1cccc2c1cc1c(=O)n(CC(=O)N3CCN(c4ccccc4F)CC3)nc(C)n12	2%	5%
COc1ccc(Cl)cc1N=C1NC(=O)CC(C(=O)Nc2ccccc2C(F)(F)F)S1 (stereo not drawn)	9%	15%
Cc1cc(C)n(-c2nc3ccccc3nc2Nc2ccccc2F)n1	-6%	4%
CC(=O)c1c(C)[nH]c(C(=O)C(C)OC(=O)c2ccc(F)cc2Cl)c1C (stereo not drawn)	20µM*	8.9µM*
Cc1ccccc1CNC(=O)C(=O)NCC(c1ccco1)S(=O)(=O)c1ccc(F)cc1 (stereo not drawn)	-11%	-7%
CCOc1ccc(-c2cn(-c3ccc(OC)cc3)c(SCC(=O)Nc3ccccc3Cl)n2)cc1	-4%	-6%
COc1ccc2cc(COC(=O)C3CCN(S(=O)(=O)c4ccc(F)cc4)CC3)ccc2c1	18%	0%
CCOc1ccc(-n2c(C)nc3cc(C(=O)NC4CCCC4)ccc32)cc1	-14%	12%
COC(=O)c1cc2c3ccccc3n(C)c2s1	97%[activator]	19%
O=C(CCc1ncc(-c2ccc(F)cc2F)o1)Nc1cccc(C(=O)NC2CC2)c1	15%	0%
CCOc1nc2ccccc2nc1C(C#N)C(=O)NCc1ccccc1 (stereo not drawn)	-11%	-4%
C[N+](C)(N)CCCl	7%	-1%

A second format for part of the listing above.
CCOc1ccc(-n2c(C)nc3cc(C(=O)NC4CCCC4)ccc32)cc1
  StopGo FLuc: -14%	StopGo RLuc: 12%

COC(=O)c1cc2c3ccccc3n(C)c2s1
  StopGo FLuc: 97%[activator]	StopGo RLuc: 19%

O=C(CCc1ncc(-c2ccc(F)cc2F)o1)Nc1cccc(C(=O)NC2CC2)c1
  StopGo FLuc: 15%	StopGo RLuc: 0%

CCOc1nc2ccccc2nc1C(C#N)C(=O)NCc1ccccc1 (stereo not drawn)
  StopGo FLuc: -11%	StopGo RLuc: -4%

Assay outcomes as filed in PubChem BioAssay.
